NPYLR7 ag = activates Aedes aegypti NPYLR7 receptor. AID 1259423. hit rate 0.15% among 270,000. activation, % at 10 µM. HEK293T NPYLR7/Galpha15, GCaMP6s calcium fluorescence; in the data active = activation above about 40%;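 also: 0% = vehicle and 100% = reference agonist at the receptor; some compounds past the cut are filed as inactive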
NPYLR7 ag max-min = further read-out of NPYLR7 ag, marked with its call; activation, %; measured here: Max-Min RFU normalised activation; some inactives read as strong as hits;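 span of the calcium signal over five minutes; 0% = vehicle and 100% = native peptide agonist; compound fluorescence can raise it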
Numbers without * were called inactive; & = joins results of further samples. The list is partial; rates above refer to the full screens.

A first look (6 entries):
1	Fc1cccc(-c2nc(CN3CCCC3c3ccsc3)co2)c1 (configuration not stated)
2	Cc1ccc(C)c(CC(=O)N2C[C@@H](C(=O)O)C[C@@H](C(=O)N3CCCC3)C2)c1
3	CCc1ccc(CN2CCC(c3n[nH]c(=O)n3-c3ccccc3)CC2)nc1
4	CN(Cc1ccc(N2CCCCC2)cc1)C(=O)c1ccc(=O)[nH]c1
5	O=C(NCCCCCC(=O)N(CCCO)CC1CC1(c1ccccc1)c1ccccc1)OCc1ccccc1 (configuration not stated)
6	O=C(C1CCCC1)N(Cc1ccc(F)cc1F)CC1CC(c2ccccc2Cl)=NO1 (configuration not stated)

Screen / compound no.	1	2	3	4	5	6
NPYLR7 ag	1	4	-1	10	8	-1
NPYLR7 ag max-min	2	2	-2	8	-3	12

The list itself (from the top)
1	Fc1cccc(-c2nc(CN3CCCC3c3ccsc3)co2)c1 (configuration not stated)
2	Cc1ccc(C)c(CC(=O)N2C[C@@H](C(=O)O)C[C@@H](C(=O)N3CCCC3)C2)c1
3	CCc1ccc(CN2CCC(c3n[nH]c(=O)n3-c3ccccc3)CC2)nc1
4	CN(Cc1ccc(N2CCCCC2)cc1)C(=O)c1ccc(=O)[nH]c1
5	O=C(NCCCCCC(=O)N(CCCO)CC1CC1(c1ccccc1)c1ccccc1)OCc1ccccc1 (configuration not stated)
6	O=C(C1CCCC1)N(Cc1ccc(F)cc1F)CC1CC(c2ccccc2Cl)=NO1 (configuration not stated)
7	CCn1ncnc1CN1CCC(c2[nH]ncc2Cc2ccccc2)CC1
8	CCOc1cc(CO)cc(I)c1OCC(=O)O

Screen / compound no.	1	2	3	4	5	6	7	8
NPYLR7 ag	1	4	-1	10	8	-1	13	11
NPYLR7 ag max-min	2	2	-2	8	-3	12	13	9

9	CC(C)c1nc2sc3c(NCCO)ncnc3c2c2c1CCCC2
10	Cc1cccc2nc(CSc3nnc(C(F)(F)F)n3C)cc(=O)n12
11	Cc1cnc(N)c(-c2ccc(S(C)(=O)=O)cc2)c1
12	O=C(Nc1ccc(Br)cc1Cl)N1CC(=O)N2CCc3ccccc3C2C1 (configuration not stated)
13	Cc1cc(C)n(-c2cc(Oc3ccc([N+](=O)[O-])cc3)nc(-c3ccccc3)n2)n1
14	NC(=O)c1cnc2n1CCN(C(=O)c1scc3c1OCCO3)C2
15	O=C(NCc1cccnc1)c1coc(CN(CCN2CCOCC2)Cc2ccc(F)cc2)n1
16	Cc1cc(C)n(CCC(=O)N(C)Cc2noc(CC(C)C)n2)c(=O)n1

Screen / compound no.	9	10	11	12	13	14	15	16
NPYLR7 ag	7	1	20	30	-13	29	20	-1
NPYLR7 ag max-min	3	6	13	15	-20	18	26	-3

17	COC(=O)C(=O)N1CCc2cc(OC)c(OC)cc2C1c1ccccc1 (configuration not stated)
18	Cn1c(CNC(=O)C2CCC(=O)N(Cc3ccccn3)C2)nc2ccccc21 (configuration not stated)
19	CCOCCOC1CCCN(C(=O)C2CCCC2)C1 (configuration not stated)
20	CC1CN=C(N2CCN(C(C(N)=O)c3ccccc3)CC2)S1 (configuration not stated)
21	CNC(=O)C1(C)CCN1C(=O)Cc1ccc(C(C)C)cc1 (configuration not stated)
22	Cc1ccc2nc(C)c(C(=O)NC3CC(=O)N(C(C)C)C3)cc2c1 (configuration not stated)
23	CC1=NC2=C(C(=O)CCC2)C(c2coc3ccc(C)cc3c2=O)C1C(=O)OCC1CCCO1 (configuration not stated)
24	COCCNC(=O)C(NC(=O)CC(C)C)C1CCN(C(=O)c2ccc3c(c2)OCO3)CC1 (configuration not stated)

Screen / compound no.	17	18	19	20	21	22	23	24
NPYLR7 ag	1	18	27	-23	7	-10	-13	-4
NPYLR7 ag max-min	-2	8	25	-22	5	-14	-18	4

3 entries picked at random from the list so far, as already listed:
20	CC1CN=C(N2CCN(C(C(N)=O)c3ccccc3)CC2)S1 (configuration not stated)
19	CCOCCOC1CCCN(C(=O)C2CCCC2)C1 (configuration not stated)
23	CC1=NC2=C(C(=O)CCC2)C(c2coc3ccc(C)cc3c2=O)C1C(=O)OCC1CCCO1 (configuration not stated)

Screen / compound no.	20	19	23
NPYLR7 ag	-23	27	-13
NPYLR7 ag max-min	-22	25	-18

Additional records:
25	CCCNC(=O)NNC(=O)C(C)NC(=O)C12CC3CC(CC(C3)C1)C2 (configuration not stated)
26	Cc1ccc(C(=O)OCCN2C(=O)c3cccc4c(N5CCCCC5)ccc(c34)C2=O)cc1
27	Cn1cnnc1SCC(=O)Nc1sccc1C(N)=O
28	O=C(NC(C(=O)c1ccccc1)n1cccnc1=O)c1ccccc1 (configuration not stated)
29	COc1cn(CC(=O)NCc2ccc(C)cc2)c(CSc2nccc(C)n2)cc1=O
30	COCc1c(Br)c(C)nc(OCC(=O)N/N=C\c2ccccc2Cl)c1C#N
31	O=C(NC1CC1)c1ccc(-c2ccc(Cl)cc2Cl)o1
32	O=C1CCC([N+](=O)[O-])C(c2cc3c(cc2Br)OCO3)N1 (configuration not stated)

Screen / compound no.	25	26	27	28	29	30	31	32
NPYLR7 ag	-3	-4	-7	-15	-4	-5	2	2
NPYLR7 ag max-min	-2	-11	-11	-18	-11	-8	1	7

33	O=C(CSc1nc(Cl)cc(N2CCN(c3cccc(Cl)c3)CC2)n1)NCCN1CCOCC1
34	COc1cccc(NC(=O)CCC2CCN(C(=O)C3CC34CCCC4)CC2)c1 (configuration not stated)
35	O=c1[nH]c(=S)ccn1-c1nc(-c2ccccc2)sc1-c1ccccc1
36	O=C1CCCCC1Sc1nc(C2CC2)nc2ccccc12 (configuration not stated)
37	Cc1cc(C)n2nc(C(=O)N3CCCC(CCc4ccccc4C)C3)cc2n1 (configuration not stated)
38	CCOC(=O)c1cnc(-c2cccnc2)nc1NCCCN1CCCCC1C (configuration not stated)
39	COc1ccc(NC(=O)CCC2CCN(Cc3cc(Cl)ccc3O)CC2)c(OC)c1
40	Cc1nc(C)c(C(C)NC(=O)N2CCCCCC2c2ccncc2)s1 (configuration not stated)

Screen / compound no.	33	34	35	36	37	38	39	40
NPYLR7 ag	-10	0	-2	16	11	19	6	0
NPYLR7 ag max-min	2	0	-4	14	3	21	0	-3

41	O=C(C=Cc1ccccc1)N1CCCC1c1nc2ccccc2s1 (configuration not stated)
42	C=CCNC(=O)O[C@@H]1CC(C(=O)N[C@H](CC(N)=O)C(N)=O)=C[C@@H](NC(=O)[C@H](C)NC)[C@H]1O
43	CC(C)CN(C/C=C/c1ccccc1)C(=O)c1ccc2nccn2c1
44	Cc1cccn2c(=O)c3cc(C(=O)N4CC(C)OC(C)C4)sc3nc12 (configuration not stated)
45	Cc1cc(C)n(CC(C)NCc2nncn2C2CCCCC2)n1 (configuration not stated)
46	CCOC(=O)C1(C)C=C(Nc2ccccc2[N+](=O)[O-])C(=O)N1c1ccccc1 (configuration not stated)
47	CCn1c(C2CCCN(C(=O)c3cc(C(C)C)oc3C)C2)n[nH]c1=O (configuration not stated)
48	Cc1ccc(N2CCn3c(SCc4ccccn4)nnc32)cc1

Screen / compound no.	41	42	43	44	45	46	47	48
NPYLR7 ag	2	-8	-5	1	14	-5	8	3
NPYLR7 ag max-min	1	-13	-10	-1	11	-7	5	2

49	CC(C)NC(=O)C1(C)CCCCCN1C(=O)c1ccc(-c2ccccc2)cc1 (configuration not stated)
50	O=C(NCc1ccccc1)c1nn(-c2ccc(F)cc2)c2c1CCC2
51	CCOc1ccc(N(CC(=O)NCCSc2ccccn2)S(=O)(=O)c2ccc(SC)cc2)cc1
52	NC(=O)CSc1nnc2ccc(-c3ccccc3)nn12
53	COc1cc(CNC(=O)CCCC/C=C\C(C)C)ccc1O
54	O=C(c1ccco1)N1CCN(Cc2nc(Cc3cccc(C(F)(F)F)c3)no2)CC1
55	COC(=O)Cn1c(=O)c2c(nc3n(-c4ccc(N(C)C)cc4)c(C)c(C)n23)n(C)c1=O
56	O=c1c2cnc(N3CCCC3)nc2ccn1-c1ccc(F)cc1

Screen / compound no.	49	50	51	52	53	54	55	56
NPYLR7 ag	-7	1	-6	-11	-9	6	1	-1
NPYLR7 ag max-min	-6	1	-7	-2	-15	-6	12	11

57	O=C(c1cccs1)N1N=C(c2ccc3c(c2)OCO3)CC1c1ccco1 (configuration not stated)
58	CCc1ccc(NC(=O)N2CCC3(CC2)C(=O)N(CC(=O)NCc2cccc(C(F)(F)F)c2)CN3c2ccccc2)cc1
59	COc1ccc2nc(-n3nc(C)cc3NC(=O)c3cc(C)nn3C)sc2c1
60	COc1c(I)cc(I)c(OC)c1OC
61	N#Cc1oc2ccccc2c1NC(=O)CSc1ccc2c(c1)CCC2
62	COc1ccc(-c2nnc3ccc(OCCNC(=O)C(C)C)nn23)cc1OC
63	Nc1c(C(=O)CSc2ccc3ccccc3n2)c(=O)[nH]c(=O)n1C1CC1
64	O=C(O)C1COC2(CCN(C(=O)c3ccc4c(c3)OCO4)CC2)N1C(=O)c1ccco1 (configuration not stated)

Screen / compound no.	57	58	59	60	61	62	63	64
NPYLR7 ag	-2	20	-8	-5	6	8	4	-11
NPYLR7 ag max-min	18	25	-13	-7	3	8	6	-2

65	CC(=O)Oc1c(-c2ccc(NC(=O)c3ccc(C(F)(F)F)cc3)cc2)c(-c2cccc(N(C)C)c2)nn1-c1ccc(F)cc1
66	COc1ccc(C2c3ccsc3CCN2C(=O)CN(C(=O)COCc2ccccc2)C2CC2)cc1 (configuration not stated)
67	CN1CCC(NS(=O)(=O)Cc2ccc(Cl)c(Cl)c2)CC1
68	Cc1cccc(COC(CN2CCN(S(=O)(=O)c3ccccc3C(F)(F)F)CC2)c2ccc(Cl)cc2)c1 (configuration not stated)
69	COCCNC(=O)CCN(Cc1ccco1)c1nc(-c2ccc(OC)cc2)nc2ccccc12
70	COc1ccc(CNC(=O)CCC2CCCN(Cc3ccc4nonc4c3)C2)c(OC)c1 (configuration not stated)
71	COc1cccc(CCNC(=O)CCn2cc([N+](=O)[O-])nc2C)c1OC
72	CCCN(Cc1ccccc1)C(=O)c1ccc(C(=O)OC)cn1

Screen / compound no.	65	66	67	68	69	70	71	72
NPYLR7 ag	4	8	6	24	-22	-4	6	1
NPYLR7 ag max-min	8	20	4	11	-14	-8	8	0

Ordered by count of non-hydrogen atoms (low to high): 4 of the compounds above.
67	CN1CCC(NS(=O)(=O)Cc2ccc(Cl)c(Cl)c2)CC1
71	COc1cccc(CCNC(=O)CCn2cc([N+](=O)[O-])nc2C)c1OC
70	COc1ccc(CNC(=O)CCC2CCCN(Cc3ccc4nonc4c3)C2)c(OC)c1 (configuration not stated)
66	COc1ccc(C2c3ccsc3CCN2C(=O)CN(C(=O)COCc2ccccc2)C2CC2)cc1 (configuration not stated)

Screen / compound no.	67	71	70	66
NPYLR7 ag	6	6	-4	8
NPYLR7 ag max-min	4	8	-8	20

Next structures follow.
73	COC(=O)c1ccc(Nc2ncnc3c2nnn3C)cc1
74	Cc1ccc2nc(-c3cccc(F)c3)c(NC3CCCCC3)n2c1
75	O=C(c1cccs1)C1CCCN(Cc2nc(COc3ccccc3)no2)C1 (configuration not stated)
76	CCCCN1C(=O)C(=O)N(CC(=O)c2cc(C)n(C3CC3)c2C)C1=O
77	CCC(=O)Nc1cc(C)nn1-c1ncnc2c1cnn2-c1ccc(C)cc1C
78	Cc1ccsc1-c1cccc(NC(=O)NCC(C)(C)C(N)=O)c1
79	CN(Cc1cc(-c2ccncc2)no1)Cc1cc(F)ccc1-n1cccn1
80	CC(C)C(C(=O)O)c1cccc(Cl)c1 (configuration not stated)

Screen / compound no.	73	74	75	76	77	78	79	80
NPYLR7 ag	10	-13	-3&2	-2	1	9	3	-6
NPYLR7 ag max-min	6	1	-10&-3	2	1	8	3	-7

81	CCN1CCN(C(=O)c2ccc(N3CCC(N(C)CCOc4ccc(C)cc4)CC3)cc2)CC1
82	O=C(Cc1ccccc1)N1CCCC1c1ccncc1 (configuration not stated)
83	Cc1cc(C)cc(CC(=O)N2CCC2(C)C(=O)Nc2ccc3c(c2)OCO3)c1 (configuration not stated)
84	COCCNC(=O)c1coc(CN(Cc2cccc(C(F)(F)F)c2)C(C)C(C)C)n1 (configuration not stated)
85	O=C1OC(C(=O)N2CCc3ccccc32)Cc2ccccc21 (configuration not stated)
86	O=C(c1cccc(OC(F)F)c1)N1CCOC(COc2ccc(F)cc2)C1 (configuration not stated)
87	CCCNC(=O)C1(C)CCN1C(=O)C/C=C/c1ccccc1 (configuration not stated)
88	Cc1ccc(-c2nc3cccc(C)n3c2NC(C)(C)C)cc1

Screen / compound no.	81	82	83	84	85	86	87	88
NPYLR7 ag	30	11	12	13	7	25	7	-7
NPYLR7 ag max-min	20	13	8	38	7	30	9	-2

89	O=C(CN1CCCC1c1ccccc1)Nc1cc(F)cc(F)c1 (configuration not stated)
90	Cc1ccccc1-c1nc(OC(C)C)nn1-c1ccc(NC(=O)C(c2ccccc2)c2ccccc2)cc1
91	CCOC(=O)C1(C)CCCN1C(=O)c1cccc(OC)c1 (configuration not stated)
92	Cc1ccc(OCCN(C)C(=O)c2ccc(Cn3nnnc3C)cc2)c(C)c1

Screen / compound no.	89	90	91	92
NPYLR7 ag	3	14	-4	-3
NPYLR7 ag max-min	8	21	-6	-5

Assay outcomes (PubChem)
